Biofilm kill mix = mixtures killing C. albicans biofilm. C. albicans biofilm persisters + clotrimazole, fluorescence viability; primary screen in compound mixtures of four per well. inhibition, % at 7.6 µM. hit rate 0.02% among 120,000;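 active = inhibition above 30.3% in the primary screen of four-compound pools, then above 30% when the compound was retested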;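 also: compounds exposed to preformed 24 h biofilms for 48 h; the number belongs to the whole pool; some results filed as inactive read as strong as hits; inactives centre near 12; 0% = biofilm with clotrimazole alone and 100% = kill control; retested singly at about 60 µM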
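Test system: C. albicans biofilms. Buffer or medium: RPMI/MOPS medium, pH 7.0. Timing: 48 h compound exposure at 37 °C. Technique: Alamar Blue fluorescence. Evaluation: percent inhibition of biofilm viability.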
An asterisk follows results filed as active; & = joins results of further samples.

SMILES | Biofilm kill mix
CN(C)c1ccc(/C=C/c2ccc3c4ccccc4ccc3[n+]2-c2ccccc2)cc1 | 18
Cc1cccc(NC(c2ccc(C)s2)c2ccc3ccc(C)nc3c2O)n1 (centres undefined) | 7
COc1ccccc1CNC(=O)c1ccc2c(=O)n(CCCN3CCCC3=O)c(=S)[nH]c2c1 | 12
O=C(O)c1n[nH]nc1-c1ccccc1 | 5
CCOC(=O)C1CCCN(C(=S)Nc2cccc(Cl)c2C)C1 (centres undefined) | 9
CNS(=O)(=O)c1ccc(NC(=O)Nc2cccc(F)c2)cc1 | -2
Cc1nnsc1C(=O)N1CCN(c2ccc(C#N)cn2)CC1 | 4
COC(=O)c1cccc(C(=O)N2CCCC(CNC(=O)c3ccccc3Cl)C2)c1 (centres undefined) | 16
COCCCNC(=S)NNC(=O)c1csc2ccccc12 | 8
COc1ccc(NC(=O)c2ccc(F)cc2)cc1S(=O)(=O)Nc1cc(C)ccc1Br | 11
CC1=CC2=NC(=O)CC(C)(C(=O)N(CC(=O)NC3CCCC3)c3cc(C)cc(C)c3)N2C=C1 (centres undefined) | 13
Cc1nn(CC(=O)NCc2ccco2)c(C)c1[N+](=O)[O-] | 0
COc1cccc(C2C(=O)c3ccccc3C2=O)c1 | 22
COCCn1cc(C(=O)NCc2ccco2)c2c3ccccc3n(C)c2c1=O | 12
Cc1nn(-c2ccccc2)c(C)c1/C=N/n1c(-c2ccncc2)n[nH]c1=S | 15
Cc1cc[n+](-c2nc3ccccc3nc2[N-]S(=O)(=O)c2ccccc2)cc1 | 16
O=C(CSc1cccs1)Nc1ccc(Cl)cc1 | 10
NC(=O)COC(=O)c1ccccc1Nc1ccc(SC(F)F)cc1 | 18
CCc1ccc(Nc2ncc3c(n2)CC(C)(C)CC3=O)cc1 | 29
C/C(N)=C(/C#N)C(=O)CSc1nnc(-c2ccccc2)n1C | 11
Cc1ccc(S(=O)(=O)NCC(=O)NCC(=O)OCC(=O)NC(=O)NC(C)(C)C)cc1C | 16
CCN(CC)CCSc1nnc2c3cc(C)ccc3n(Cc3ccccc3)c2n1 | 7
Cc1cc(Cl)ccc1OCC(=O)NCC(=O)N/N=C/c1ccco1 | 1
COc1ccc(CCc2nc(C)ccc2O)cc1 | 9
Oc1cccc(/C=N/Nc2ncnc3c2ncn3Cc2ccccc2)c1 | 18

Following part.
SMILES | Biofilm kill mix
Cc1cccc(C(=O)c2cccc(C)c2)c1 | 0
Cc1ccccc1OCc1nnc(SC(C)C(=O)O)n1Cc1ccccc1 (centres undefined) | 12
CC(C)Sc1cc(N2CCOCC2)nc(-c2ccccc2)n1 | 4
COc1cc(/C=N/NC(=O)c2ccc(N(C)S(=O)(=O)c3ccccc3)cc2)cc(OC)c1OC | 18
Cc1cc(=O)oc2cc(OS(C)(=O)=O)ccc12 | 23&11
COCCNC(=S)N1CCc2cc(OC)c(OC)cc2C1COc1cc(C)cc(C)c1 (centres undefined) | 7
Cc1cc(C)c(C(=O)/C=C/c2cccc3ccccc23)c(=O)[nH]1 | 12
CC(=O)Nc1nnc(-c2ccccn2)o1 | 7
CCN(CC)S(=O)(=O)c1ccc(N2CCOCC2)c(NC(=O)c2cc(C)cc(C)c2)c1 | 15
Cc1cc2oc(=O)cc(C)c2cc1NC(=O)CCl | 3
Cc1cc(C)cc(CSCC(=O)NN=C2CCCCCC2)c1 | 6
COc1ccc(C(=O)O/N=C(\N)Cc2ccc(Cl)c(Cl)c2)cc1OC | 15
CCN(CC)S(=O)(=O)c1ccc2c(c1)nc(CCC(=O)O)n2CC | 11
Cc1ccc(C)c(NC(=O)c2cc(-c3cccnc3)nc3ccccc23)c1 | 11
Cc1ccc(CN2CCSc3ccc(C(=O)NCc4ccccn4)cc32)cc1 | 3
CSCCNCc1cn(-c2ccc(F)cc2F)nc1-c1ccccc1C | -4
CCC(C)C(NC(=O)c1ccccc1NC(=O)c1ccco1)C(=O)NNC(=O)c1ccc(OC)cc1 (centres undefined) | 13
O=C(Nc1ccccc1)C1=C[C@H](c2csc3ccccc23)C[C@H](OCCCCO)O1 | 19
NC(=O)c1cccnc1Sc1ccc(Cl)cc1 | -9
COc1ccc(CNC(=O)[C@H](C)[C@@H]2C[C@@]2(C)[C@@H](NC(=O)OCc2ccccc2)c2ccccc2)cc1OC | 16
CC1(C)CC(=O)C(=C2SCCCS2)C(=O)C1 | 10
COc1cc(/C=N/NC(=O)c2cccnc2)ccc1OCC(=O)Nc1c(C)cc(C)cc1C | 6
S=c1[nH]nc(COc2ccccc2)n1/N=C/C=C/c1ccco1 | 6
COc1cc2cc(CN(Cc3cccs3)C(=S)Nc3ccc(C)cc3)c(=O)[nH]c2cc1OC | 5
N#CCC(=O)c1ccccc1Oc1ccc(Cl)cc1 | 11

The results go on:
SMILES | Biofilm kill mix
O=C1O/C(=C\c2ccccc2)c2ccccc21 | 6
O=C1NC(CCc2ccccc2)C(=O)N1CCOc1cccc(Br)c1 (centres undefined) | 8
O=C(COC(=O)c1n[nH]c2ccccc12)Nc1ccc([N+](=O)[O-])cc1 | 7
O=[N+]([O-])c1ccc(S(=O)(=O)NCCc2cn3ccccc3n2)cc1 | 17
Oc1ccc(C2C(c3ccccc3)=NN=C(c3ccccc3F)N2O)c(O)c1 (centres undefined) | 18
Cc1n[nH]c(C)c1CCC(=O)N/N=C/c1cccc([N+](=O)[O-])c1 | 3
Cc1ccc(S(=O)(=O)N2CCOCC2)cc1NC(=O)c1cccc(S(=O)(=O)N2CCCC2)c1 | 19
O=C(CNC(=S)N(Cc1ccccc1)Cc1ccccc1F)NCc1ccc(Cl)cc1 | -5
COc1ccc(NC(=S)N2CCN(Cc3ccccc3)CC2)cc1 | 13
CCCOc1ccc(C(C)=O)cc1CN1CCOCC1 | 15
S=C(NCc1ccccc1)N1CCN(c2cccc(Cl)c2)CC1 | 2
CCOC(=O)C1(Cc2ccccc2C)CCCN(S(=O)(=O)c2cccnc2)C1 (centres undefined) | -3
CC(=O)SC1CC2=CC(=O)CCC2(C)C2CCC3(C)C(CCC34CCC(=O)O4)C12 (centres undefined) | 6
C=CCN(CC=C)S(=O)(=O)c1ccc(NC(=O)COc2ccccc2OC)cc1 | 8
Cc1noc(C)c1C(=O)OCC(=O)Nc1ccc(C(N)=O)cc1 | 11
CS(=O)(=O)c1[nH]nc(-c2ccccc2Cl)c1C#N | 24
CCN(CC)C(=S)Nc1ccc2nc3n(c(=O)c2c1)CCCCC3 | 22
CCOc1ccccc1NC(=O)CN1C(=O)C(C)SC(C)C1=O (centres undefined) | 5
COc1ccc(Nc2nc3ccc(C)cc3cc2C#N)c(OC)c1 | 11
O=C(O)c1ccccc1Nc1cccc(C(F)(F)F)c1 | 11
O=C(O)c1ccccc1N=Cc1c(O)n(-c2nccs2)c(=O)c2ccccc12 | 15
Cc1ccc(C(=O)OCC(=O)c2c[nH]c3ccccc23)cc1S(=O)(=O)N1CCCCC1 | 8
COc1cccc(CNC(=O)C2CCN(c3cnccn3)CC2)c1 | 5
COC(=O)C1C/C(=N\NS(=O)(=O)c2ccc(C)cc2)c2sccc2C1 (centres undefined) | 8
CCC(C)NC(=O)CN(c1cc(Cl)cc(Cl)c1)S(C)(=O)=O (centres undefined) | 27

Remaining list, next part
SMILES | Biofilm kill mix
O=C1c2ccccc2C(=O)N1CCc1c[nH]c2ccccc12 | 1
COc1ccc(NC(=O)c2cc(-c3ccco3)nc3ccccc23)cc1S(=O)(=O)N1CCOCC1 | 18
COc1cc2c(c(OC)c1OC)CC(=O)N(C)CC2 | 11
CCOC(=O)c1cnc2c(F)ccc(F)c2c1Sc1ccccc1 | 12
CC(=O)Nc1ccc(NC2=C/C(=N/S(=O)(=O)c3cccs3)c3ccccc3C2=O)cc1 | 5
COc1ccccc1-n1c(-c2ccccc2)c[nH]c1=S | 0
COC(=O)c1ccc(C(=O)OC)c(NC(=S)N2CCCCC2C)c1 (centres undefined) | -4
Cc1ccc(-c2csnn2)cc1 | 19
OCCC1CN(Cc2c(F)cccc2Cl)CCN1C1CCCC1 (centres undefined) | 5
N=C1CCCN1CC(=O)c1ccc(Br)cc1 | 2
C/C(=N/NC(=O)c1cccnc1)C1=C(O)CC(C)(C)CC1=O | 10
O=C(Oc1ccc([N+](=O)[O-])cc1)c1ccc(Cl)c(S(=O)(=O)N2CCCCC2)c1 | -9
O=C(c1c[nH]c2ccccc12)N1CCN(c2ccccc2)CC1 | 8
COc1ccc(C(=O)O)cc1S(=O)(=O)NC(C)C | 16
C=CCNC(=S)NNC(=O)C(CCCC)CC(C)(C)O (centres undefined) | 9
COc1ccccc1C(=O)OCc1nc(N)nc(Nc2ccccc2C)n1 | 24
CN(C)c1ccc(C(=O)c2ccc(N(C)C)c3ccccc23)cc1 | 9
COc1ccc(S(=O)(=O)NCC2CCCN(C(=O)c3ccco3)C2)cc1 (centres undefined) | 12
COc1ccc2c(c1)C1NC(=S)NC(C)(O2)C1C(=O)Nc1ccc(C)cc1C (centres undefined) | 14
CCN(CC)S(=O)(=O)c1ccc(/C=C/C(=O)Nc2ccc(N3CCOCC3)cc2)cc1 | 11
CC1=CC(C)(C)NC(=S)N1c1cc(C)cc(C)c1 | 12
FC(F)(F)c1ccc2c(c1)NCC1CCCN21 (centres undefined) | 9
COCCSc1nnc(NC(=O)C2CC(=O)N(c3ccc(Cl)cc3)C2)s1 (centres undefined) | 7
Brc1ccc(/C=N/Nc2nncc(-c3ccccc3)n2)o1 | -16
O=C(CN1CCN(Cc2ccccc2)CC1)N/N=C/c1c[nH]c2ccccc12 | 18

More compounds:
SMILES | Biofilm kill mix
COc1ccc(N=C2SC(CC(=O)Nc3cccc(Cl)c3)C(=O)N2Cc2ccco2)cc1 (centres undefined) | 20
CCOC(=O)/C=C/C(=O)OCC(=O)Nc1ccc(C)cc1 | 9
O=C(O)/C(=C\c1ccc(-c2ccc(F)cc2)o1)c1ccccc1 | 1
CCOC(=O)/C=C/C(=O)Nc1ccc(S(=O)(=O)N2CCCCCC2)cc1 | 28
COCCCN1C(=O)C(=O)/C(=C(/O)c2ccc(C)cc2)C1/C=C/c1ccccc1 (centres undefined) | 14
CCN1CCN(CCNC(=O)c2ccc(/C=C3/Sc4ccccc4N(Cc4ccccc4C)C3=O)cc2)CC1 | 17
Cc1cc(Nc2ccccc2)n(-c2ccc(C(=O)O)cc2)n1 | 6
COC(=O)C1(C)CN(S(=O)(=O)c2ccc(C)cc2)c2cc(OC)ccc2C1=O (centres undefined) | 7
CCCCS(=O)(=O)Nc1ccc(C)cn1 | 19
CCCCCc1ccc(-c2ccc(C(=O)O)cc2)nc1 | 7
Cc1ccc(C(=O)NNC(=O)/C=C\C(=O)O)cc1 | 28
Cc1cc(=O)[nH]c(SCC(=O)Nc2ccc(S(N)(=O)=O)cc2)n1 | 16
CCc1ccc(CN2C(=O)c3ccccc3C2C(=O)NCC2CCCO2)cc1 (centres undefined) | 14
CCOC(=O)c1sc(Nc2ccccc2Cl)nc1C | 5
CCn1nc(C(C)C(=O)O)c2ccccc2c1=O (centres undefined) | 3
O=C(COC(=O)CNC(=O)c1ccc(Cl)cc1)Nc1ncc(C(F)(F)F)cc1Cl | 11
Cc1nonc1OCC(C)(COc1nonc1C)NC(=O)c1ccccc1 | 8
CC(OC(=O)CCC(=O)c1cccs1)C(=O)Nc1ccc(Cl)cn1 (centres undefined) | 11
Cc1ccc(Nc2ncccc2C(N)=O)cc1 | 5
CCOc1ncccc1C(=O)OCC(=O)Nc1ccc(C)c(S(=O)(=O)N2CCOCC2)c1 | -4
Cc1nc2ccc(NC(=O)Cc3ccccc3F)cc2s1 | 2
COCCCNC(=S)NNC(=O)c1ccoc1C | 11
CC(=O)N1N=C2c3ccccc3CCC2C1c1cccs1 (centres undefined) | 9
C/C(CC(=O)Nc1ccc(Cl)c(C(F)(F)F)c1)=N\NC(=O)c1ccccc1O | 9
Cc1nc2ccccc2cc1C(=O)N/N=C/c1cccs1 | 13

Further compounds.
SMILES | Biofilm kill mix
COc1ccc(NC(=O)c2[nH]c(C)c(C(C)=O)c2C)cc1S(=O)(=O)N1CCOCC1 | 22
NS(=O)(=O)c1ccc(Nc2ccc([N+](=O)[O-])c3nonc23)cc1 | 36
CC(NC(=O)CSc1ccccc1C(=O)O)C1CC2CCC1C2 (centres undefined) | 18
O=C(CSc1nnc(-c2ccc(F)cc2)c2ccccc12)Nc1ccccc1Cl | 7
COc1ccccc1/C=C(/C#N)C(=O)O | 27
O=C(Cn1ncc2ccccc21)N1CCN(c2cccc(C(F)(F)F)c2)CC1 | 17
Cc1cc(C)cc(N(C(C)C(=O)N2CCOCC2)S(C)(=O)=O)c1 (centres undefined) | -16

Structures listed so far containing fluorine, in the order listed:
SMILES | Biofilm kill mix
CNS(=O)(=O)c1ccc(NC(=O)Nc2cccc(F)c2)cc1 | -2
COc1ccc(NC(=O)c2ccc(F)cc2)cc1S(=O)(=O)Nc1cc(C)ccc1Br | 11
NC(=O)COC(=O)c1ccccc1Nc1ccc(SC(F)F)cc1 | 18
CSCCNCc1cn(-c2ccc(F)cc2F)nc1-c1ccccc1C | -4
Oc1ccc(C2C(c3ccccc3)=NN=C(c3ccccc3F)N2O)c(O)c1 (centres undefined) | 18
O=C(CNC(=S)N(Cc1ccccc1)Cc1ccccc1F)NCc1ccc(Cl)cc1 | -5
O=C(O)c1ccccc1Nc1cccc(C(F)(F)F)c1 | 11
CCOC(=O)c1cnc2c(F)ccc(F)c2c1Sc1ccccc1 | 12
OCCC1CN(Cc2c(F)cccc2Cl)CCN1C1CCCC1 (centres undefined) | 5
FC(F)(F)c1ccc2c(c1)NCC1CCCN21 (centres undefined) | 9
O=C(O)/C(=C\c1ccc(-c2ccc(F)cc2)o1)c1ccccc1 | 1
O=C(COC(=O)CNC(=O)c1ccc(Cl)cc1)Nc1ncc(C(F)(F)F)cc1Cl | 11
Cc1nc2ccc(NC(=O)Cc3ccccc3F)cc2s1 | 2
C/C(CC(=O)Nc1ccc(Cl)c(C(F)(F)F)c1)=N\NC(=O)c1ccccc1O | 9
O=C(CSc1nnc(-c2ccc(F)cc2)c2ccccc12)Nc1ccccc1Cl | 7
O=C(Cn1ncc2ccccc21)N1CCN(c2cccc(C(F)(F)F)c2)CC1 | 17

Screening results from PubChem BioAssay.

An excerpt; rates above refer to the full screens.
